# Cruzain Triton: blocks cruzain activity in presence of Triton detergent; purified cruzain, Z-FR-AMC fluorescence, 0.01% Triton; P25779; Potency, µM, for inactives: max response, negative = inhibition, most hits filed as inhibitors; AID 1478; hit rate 0.43% among 200,000;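 note: plate controls were neutral wells for no effect and buffer without enzyme for full effect; nearly all actives have a fitted effect of over 40% in size; top concentration of the series not given in the record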
# Target sequence (P25779 123-467 limits assumed): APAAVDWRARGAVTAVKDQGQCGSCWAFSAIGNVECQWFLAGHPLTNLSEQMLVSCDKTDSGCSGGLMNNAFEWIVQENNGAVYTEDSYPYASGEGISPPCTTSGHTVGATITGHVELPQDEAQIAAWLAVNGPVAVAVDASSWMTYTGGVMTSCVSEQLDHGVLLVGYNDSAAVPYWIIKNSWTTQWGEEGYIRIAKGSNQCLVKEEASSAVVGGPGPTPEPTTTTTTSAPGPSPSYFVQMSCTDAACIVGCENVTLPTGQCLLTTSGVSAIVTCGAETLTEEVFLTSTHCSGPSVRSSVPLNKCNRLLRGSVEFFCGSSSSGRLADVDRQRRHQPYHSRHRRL
#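 Purified cruzain (1.5 nM final) was preincubated with compounds for 15 min at room temperature in 100 mM sodium acetate pH 5.5, 5 mM DTT, 0.01% Triton X-100. Reaction started with 2 uM Z-FR-AMC; AMC fluorescence change over 60 s gave activity.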
# Cruzain inh noDet: cruzain (T. cruzi) inhibition without detergent | purified cruzain, Z-FR-AMC fluorescence, no detergent | hit rate 2.3% among 200,000 | P25779 | AID 1476 | Potency, µM, inactives show max response, negative = inhibition, most hits filed as inhibitors;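 note: plate controls were enzyme without inhibitor for no effect and buffer without enzyme for full effect; nearly all actives have a fitted effect of over 40% in size; top concentration of the series not given in the record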
#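 Purified cruzain at 1.5 nM, pre-incubated 15 min with compound at room temperature in 100 mM sodium acetate pH 5.5, 5 mM DTT, 0.00005% Triton X-100. Reaction started with 2 uM Z-FR-AMC; AMC fluorescence increase over 60 s gives rate.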
# MARV entry inh: blocks Marburg virus binding to or entry into cells; Marburg virus pseudotyped entry inhibition, cell reporter; control for the full effect not named in the record; about a third of the inactives were read at about 46 µM; Potency, µM (series often up to 37.8 µM), without a hit: at the highest dose activity change, negative = inhibition, most hits filed as inhibitors; hit rate 1.8% among 300,000; AID 540276; active = well fitted inhibition curve with a large enough effect; inconclusive = small, poorly fitted or top-dose-only effect, or effect the other way; inactive = flat fitted curve, though single readings scatter; tested in HEK293 cells; about a fifth of its hits are not listed in these tables; note: % is set by controls: 0 for no effect and ±100 for the full control effect; luciferase read-out
# 2A StopGo: lowers the luciferase signal of an FMDV 2A StopGo reporter; human cells with a luciferase reporter of 2A StopGo recoding; control for the full effect not named in the record; Potency, µM (doses to about 57.9 µM), inactives show at the highest dose signal change, negative = less light; hit rate 1.2% among 410,000; AID 1159524; active = well fitted falling curve with a large enough effect; inconclusive = small, poorly fitted or top-dose-only effect; inactive = no such curve, though single readings can be large or run the other way; tested in HEK293T cells; note: % is set by controls: 0 for no effect and ±100 for the full control effect; nearly all actives have a fitted effect of over 45% in size; luciferase light after 4 h
# NS1 function inh: blocks influenza NS1 protein function | S. cerevisiae slowed by influenza A NS1, growth recovery by OD600 | Potency, µM (highest dose often 46.1 µM), without a hit: at the top dose activity, positive = more growth | hit rate 0.4% among 270,000 | AID 2326; active means well fitted rising curve with a large enough effect; inconclusive means small, poorly fitted or top-dose-only effect; inactive means no such curve, though single readings can be large or run the other way; note: nearly all actives have a fitted effect of over 50% in size
#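 Recovery from NS1-induced slow growth read by OD600 in budding yeast switched to galactose assay medium (pH 6.0, -URA) at 1:100 dilution. Compound 23 nl per well; the matching strain lacking NS1 serves as control.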
# SARS PLP yeast: SARS-CoV PLP inhibition in yeast | S. cerevisiae expressing SARS-CoV PLpro, growth rescue; control for the full effect not named in the record | hit rate 0.19% among 330,000 | Potency, µM (doses to about 32.9 µM), inactives show top-dose activity, positive = growth rescue; active means well fitted rising curve with a large enough effect; inconclusive means small, poorly fitted or top-dose-only effect; inactive means no such curve, though single readings can be large or run the other way; note: 0% is about no effect; nearly all actives have a fitted effect of over 55% in size; growth read by luminescence after 48 h
# LASV entry inh: inhibitors of Lassa virus binding or cell entry; Lassa virus pseudotype entry inhibition, cell reporter; control for the full effect not named in the record; Potency, µM (doses to about 37.9 µM), inactives show at the top dose activity change, negative = inhibition, actives largely listed as inhibitors; hit rate 1.2% among 300,000; active means well fitted inhibition curve with a large enough effect; inconclusive means small, poorly fitted or top-dose-only effect, or effect the other way; inactive means flat fitted curve, though single readings scatter; tested in HEK293 cells; note: % is set by controls: 0 for no effect and ±100 for the full control effect; nearly all actives have a fitted effect of over 50% in size; luciferase read-out
# RE007 growth inh: less growth of the S. pombe RE007 Vpr strain; hit rate 0.21% among 360,000; AID 651644; S. pombe RE007 Vpr strain, BacTiter-Glo ATP luminescence, 24 h; control for the full effect not named in the record; Potency, µM (titrated, usually from 92.2 µM), for inactives: top-dose activity change, negative = less growth; active = well fitted falling curve with a large enough effect; inconclusive = small, poorly fitted or top-dose-only effect; inactive = no such curve, though single readings can be large or run the other way;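 note: % is set by controls: 0 for no effect and ±100 for the full control effect; nearly all actives have a fitted effect of over 50% in size; the assay follows cell death caused by Vpr and the record does not say whether a fall means rescue or toxicity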
#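 Fission yeast strain RE007, carrying one chromosomally integrated HIV-1 vpr copy, was seeded at OD 0.01 in PMG+AL medium with 23 nL pinned compound. After 24 h at 30 °C and 99% humidity, viability was read by BacTiter-Glo luminescence.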
# Active calls of the source: *; ? = inconclusive; . = not tested or not shown; [ ] = dose if it differs, or a comment. Unless noted, calls come from the whole dose curve; as a rule, active = well fitted curve in the direction sought with a large enough effect; inconclusive = small, poorly fitted or top-dose-only effect, or another doubt; inactive = no such curve, though single readings can be large; an effect the other way counts as inactive or inconclusive. Potency is the fitted concentration of half-maximal effect.
SMILES,Cruzain Triton,Cruzain inh noDet,MARV entry inh,2A StopGo,NS1 function inh,SARS PLP yeast,LASV entry inh,RE007 growth inh
CC(C)[C@@H](C(=O)OCC(=O)c1ccc2c(c1)NC(=O)CO2)N1C(=O)c2ccccc2C1=O,.,.,7%[46.1 µM],-12%,.,.,-2%[46.1 µM],11%
CCC1C=C(c2ccccc2)C=CN=C1N(CC)CC (stereo not given),0.7%,-3%,?,-24%,-18%,-3%,?,16%
N#Cc1c(-c2cccs2)cc(-c2cccnc2)nc1N,-11%,-11%,-2%,?,-27%,-1%,2%,3%
CCNC(=S)N1CCN=C1Nc1nc(C)cc(C)n1,.,.,23%[46.1 µM],9%,3%,0%,17%,-3%
CN(C(=S)Nc1ccccc1)c1ccccc1,-0.1%,-2%,?,-17%,8%,3%,1%,10%
Cc1ccc(OCC(=O)NNC(=O)C2CSC3(C)CCC(=O)N23)cc1C (stereo not given),.,.,3%,-14%,.,-2%,4%,7%
CN(C)/C=C1\C(=O)N(c2ccc(Cl)cc2)CS1(=O)=O,-1.6%,-4%,?,48%[activator],4%,8%,7%,-3%
COc1c(C)cc(C(=O)C2CCCN(C(=O)c3ccc4cc[nH]c4c3)C2)cc1C (stereo not given),.,.,-27%[46.1 µM],4%,-3%,-1%,.,34%
CC(/C=N/NC(=O)CSc1ccccn1)=C\c1ccc(C(C)C)cc1,-12%,-9%,?,1%,8%,-47%,?,40%
CCNC(=S)N1CCN(S(=O)(=O)c2ccc(C)c(C)c2)CC1,.,.,.,-13%,0%,1%,.,-12%

# Next section, overlapping the part above by two compounds.
SMILES,Cruzain Triton,Cruzain inh noDet,MARV entry inh,2A StopGo,NS1 function inh,SARS PLP yeast,LASV entry inh,RE007 growth inh
CC(/C=N/NC(=O)CSc1ccccn1)=C\c1ccc(C(C)C)cc1,-12%,-9%,?,1%,8%,-47%,?,40%
CCNC(=S)N1CCN(S(=O)(=O)c2ccc(C)c(C)c2)CC1,.,.,.,-13%,0%,1%,.,-12%
Cc1cc(C)c(S(C)(=O)=O)c(Oc2ccccc2C)n1,5.0%,3%,-1%,-2%,1µM*,24%,-1%,3%
CN1CCN(CCCNC(=O)c2cnn(-c3ccccc3)c2C2CCN(C(=O)OC(C)(C)C)CC2)CC1,5.4%,2%,.,16%,.,.,?,.
COc1cccc(C(=O)OCC(=O)N2CCc3ccccc3C2)c1,.,.,4%[46.1 µM],5%,.,-12%,-14%[46.1 µM],2%
Cc1ccc(-n2ncc(C#N)c2/N=C/N2CCOCC2)cc1,7.3%,6%,-10%,-23%,-12%,0%,-2%,-13%
COc1cccc(NC(=O)COC(=O)c2c(-c3ccccc3)noc2C)c1,-3.7%,0%,-1%,7%,-17%,-4%,7%,16%
CSC1=N/C(=C\C=C\c2cccs2)C(=O)S1,-13%,-21%,10%,8%,-55%,-24%,-4%,?
O=C(CSc1nc(Nc2ccccc2)nc(N2CCOCC2)n1)Nc1ccc([N+](=O)[O-])cc1,-0.2%,?,?,-27%,1%,3%,-25%,5%
O=C(COC(=O)c1cc[n+]([O-])cc1)Nc1c(Cl)cccc1C(F)(F)F,.,.,28%,-7%,.,1%,-1%[46.1 µM],22%
O=C(O)CN1C(=O)Nc2ccc(Br)cc2C1c1ccccc1 (stereo not given),-2.2%,-9%,-2%,-2%,?,0%,11%,-9%
CC(=O)/C(=C/c1ccc(N(C)C)cc1)C(=O)c1ccccc1,-15%,-12%,16%,?,-7%,6%,-15%,6%
Cc1ccc([N+](=O)[O-])cc1NC(=O)c1ccoc1C,-4.7%,-6%,?,10%,-17%,-14%,14%,-7%
CC1(C)CC(=O)C(C=NCC2CCCO2)=C(O)C1 (stereo not given),-0.8%,-1%,10%,24%,-7%,5%,4%,4%
O=C(COc1ccccc1Br)c1ccc(O)cc1O,-7.9%,-4%,19%,.,-152%,-36%,11%,-2%
CC(C)(Oc1ccc(Cl)cc1)C(=O)Nc1ccc2oc(=O)ccc2c1,.,.,-10%,-22%,-13%,-7%,-2%,-8%
O=C(CN1C(=O)CCSc2ccccc21)Nc1ccc(C(F)(F)F)cc1,0.4%,-13%,14%[46.1 µM],-30%,.,.,.,.
CCCNc1ncccc1C(N)=O,1.8%,0%,-2%,4%,3%,-5%,-15%,6%
CC(C)CCSc1cc(NCCO)c([N+](=O)[O-])c2nonc12,.,.,?,0%,.,3%,-28%,12%
Cc1ccc(Cl)c2sc(N3CCN(C(=O)C4CC4)CC3)nc12,-11%,?,.,-19%,.,.,-19%[46.1 µM],.
COc1cc(NC(=O)CSc2nc3ccccc3cc2C)c(C(=O)O)cc1OC,-9.1%,5%,12%,-20%,12%,15%,1%,-2%
CCOc1ccccc1NC(=O)C1CCN(C(=O)Cc2ccccc2)CC1,.,.,2%[46.1 µM],-2%,.,0%,?,21%
CC12CCC(C(=O)N(Cc3ccccc3)Cc3ccccc3)(OC1=O)C2(C)C (stereo not given),-5.3%,3%,?,?,-72%,-24%,?,-12%
O=C(O)c1ccccc1C(=O)NCc1ccc(F)cc1,2.8%,8%,-3%,18%,-5%,-1%,4%,18%
CCN(CC)C(=O)CSc1nc2c(sc(=S)n2-c2ccccc2)c(=O)n1-c1ccc(OC)cc1OC,.,.,.,-5%,11%,0%,.,9%
C=C1CC2C=C(NC(C)=O)CC(C1)C2 (stereo not given),1.8%,10%,1%,-6%,2%,?,-2%,18%
CC1CC(O)C(C)CN1 (stereo not given),.,.,?,-2%,0%,0%,-3%,-9%
C=CCc1cccc2cc(C(=O)NC3CCCC3)c(=O)oc12,.,.,?,32%[activator],-1%,1%,-7%,-7%
CCOC(=O)NC(=O)c1cn(Nc2ccccc2)c(=O)[nH]c1=O,.,.,-22%,-7%,1%,0%,0%,15%
Oc1c(C(c2ccccc2Cl)N2CCCC2)sc2nc(-c3ccco3)nn12 (stereo not given),-0.8%,-14%,.,0%,.,.,7%[46.1 µM],.
O=C(COc1ccccc1F)NC1CC(=O)N(c2ccc3c(c2)OCCO3)C1 (stereo not given),-5.2%,-2%,.,-17%,.,.,?,.
O=C(Cn1c(=O)n(CCc2c[nH]c3ccccc23)c(=O)c2cccnc21)Nc1ccccc1F,-1.7%,?,-12%,-10%,20%,9%,?,14%
C=CCN1CC(C(=O)N2CCC(Cc3ccc(Cl)cc3)(C(=O)OCC)CC2)CC1=O (stereo not given),.,.,.,-5%,-3%,0%,.,-5%
O=C(Nc1ccccc1)Nc1cc(Cl)cc(Cl)c1,-4.7%,-22%,?,-29%,-144%,-24%,?,-13%
O=C(CSc1ncn[nH]1)Nc1nc(-c2cccc([N+](=O)[O-])c2)cs1,.,.,.,-17%,2%,-2%,.,4%
COCc1cc(C)nc(SCC(=O)NCc2ccco2)c1C#N,2.8%,-5%,-14%,-19%,5%,26%,31%,-22%
COc1ccccc1C(=O)NC(C)C(c1cccs1)N1CCOCC1 (stereo not given),0.1%,-7%,?,.,-9%,-11%,-1%,4%
Cc1nnc(SCc2ccccc2)n(N)c1=O,-0.9%,19%,?,-13%,4%,-3%,9%,16%
Cc1cccc(-c2nc(CSCC(=O)N3CCN(c4ccccc4)CC3)c(C)o2)c1,-6.1%,?,12%[46.1 µM],?,.,.,-18%[46.1 µM],.
N#Cc1c2n(c3c(=O)n(Cc4ccc(Cl)cc4)cnc13)CCCC2,-4.5%,7%,?,0%,-52%,7%,2%,-3%
C=CCOC(=O)C1=C(C)NC(SCC(=O)Nc2ccc(C)c(Cl)c2)=C(C#N)C1c1ccco1 (stereo not given),-6.7%,10µM*,10µM*,-12%,-5%,0%,-25%,31%
Cc1cc(NC(=O)CCn2c(=O)sc3ccccc32)no1,.,.,2%,14%,5%,.,-11%,8%
Cc1cc(C)c2[nH]c(=O)c(CN(Cc3ccc4c(c3)OCO4)Cc3nnnn3C3CCCC3)cc2c1,-0.6%,2%,?,.,20%,3%,?,9%
CCn1cc(/C=C(\NC(=O)c2cc(OC)c(OC)c(OC)c2)C(=O)NCCN2CCOCC2)c2ccccc21,.,.,.,5%,-11%,?,.,5%
Cn1ccc(C(=O)N2CCCc3ccccc32)n1,7.6%,-3%,8%,-23%,-6%,2%,9%,-2%
CSCc1ccc(C(=O)NCC(c2cccs2)N2CCOCC2)cc1 (stereo not given),.,.,?,26%,.,2%,-4%,5%
CS(=O)Cc1cc(Sc2ccccc2)nc(-c2cccnc2)n1 (stereo not given),.,.,?,2%,.,1%,-10%,9%
Cc1cc(=O)[nH]c2nnc(SCc3ccc(Cl)c(Cl)c3)n12,-2.5%,-14%,.,11%,.,.,-11%[46.1 µM],.
CC(CC(=O)Nc1cc([N+](=O)[O-])ccc1Cl)c1ccccc1 (stereo not given),-5.6%,1%,5%[46.1 µM],-12%,-3%,4%,9%,-20%
Cc1ccc2[nH]c3c(c2c1)CN(C(=O)CN1CCSCC1)CC3,1.4%,0%,0%,.,6%,4%,.,.
COc1cc(OC)cc(C(=O)NC(=S)NCc2ccco2)c1,-1.8%,5%,17%,11%,2%,15%,?,0%
CN(CC(=O)Nc1c(Cl)cccc1Cl)C(=O)c1cc(-c2cccs2)nn1-c1ccccc1,.,.,-3%,0%,.,6%,?,12%

# Further entries follow:
SMILES,Cruzain Triton,Cruzain inh noDet,MARV entry inh,2A StopGo,NS1 function inh,SARS PLP yeast,LASV entry inh,RE007 growth inh
O=C(NCc1ccc2c(c1)OCO2)C1COc2ccccc2O1 (stereo not given),-1.0%,-15%,?,53%[activator],-8%,?,?,?
CCc1ccc(CN(C)C(=O)c2cc(COc3cccc(C(F)(F)F)c3)on2)nc1,.,.,?,-8%,-110%,-4%,?,-7%
CCOc1cc(/C=N/NC(=O)c2ccc(NC(=O)C3CC3)cc2)ccc1O,.,.,.,-24%,-8%,2%,.,1%
CS(=O)(=O)c1ccc(C(=O)Nc2ccc(N3CCOCC3)cc2)c(Cl)c1,.,.,-6%[46.1 µM],13%,7%,0%,-2%[46.1 µM],-4%
COc1ccc(S(=O)(=O)N2CCC(C(=O)N3CCCCCC3)CC2)cc1,-1.9%,16%,-2%,-7%,1%,-3%,-12%,30%
COc1ccccc1C(=O)Nc1cc(C)on1,.,.,2%,71%[activator],-10%,-6%,5%,-27%
